Source: PubChem BioAssay
MT1-MMP promoter – inhibitors of MT1-MMP promoter transcription, cell-based, luciferase reporter, luminescence (AID 618) | MT1-MMP promoter luciferase reporter cells, luminescence | calls from a first round at 10 µM; hits with a dose series show EC50 in µM | actives 0.62% (n = 87,000);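 active = over half of the reporter light lost at 10 µM or EC50 under 50 µM; inactive = the rest and hits that failed the dose series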;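 note: actives suppress MT1-MMP promoter-driven transcription so potencies describe inhibitors; HT1080 fibrosarcoma cells; overnight exposure; toxic or luciferase-blocking compounds were not removed from the actives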
WNV NS2B-NS3 inh – blocks West Nile virus NS2B-NS3 protease activity; WNV NS2B-NS3 protease, fluorogenic substrate Ex360/Em465; active compounds read low; z-score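 (tested at a level between 10 and 100 µM)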; actives 0.18% (n = 65,000);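 active = z-score at -3 or under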;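 note: score is relative to mean and spread of the compound wells of a plate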
Target sequence (P06935 1371-1501 limits assumed): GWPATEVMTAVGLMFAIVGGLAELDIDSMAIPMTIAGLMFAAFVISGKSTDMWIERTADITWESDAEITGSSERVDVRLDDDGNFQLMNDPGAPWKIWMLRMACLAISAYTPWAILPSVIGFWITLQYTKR
Target sequence (P06935 1502-1679 limits assumed): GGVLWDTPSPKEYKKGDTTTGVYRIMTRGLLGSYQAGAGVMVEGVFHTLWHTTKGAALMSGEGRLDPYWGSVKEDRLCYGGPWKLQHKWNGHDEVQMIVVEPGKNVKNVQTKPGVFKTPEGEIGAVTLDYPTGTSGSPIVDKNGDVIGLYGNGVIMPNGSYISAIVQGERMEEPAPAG
Hsc70 ATP site – Hsc70 inhibitors, probe displacement, primary screen, biochemical, fluorescence polarization (AID 568); Hsc70 fluorescence polarization, probe displacement; higher % means a stronger effect; strong numbers were not always called active; one-dose displacement, % at 20 µM; IC50 in µM for titrated hits; 83,000 tested, under 10 active;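 active = displacement above 50% without optical interference and an IC50 on retest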;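 note: ATPase domain with a fluorescein-tagged ATP probe; 0% = vehicle and 100% = excess ADP; read after one hour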
Numbers without * were called inactive.

`Nc1ccc(Br)c2c1C(=O)c1ccccc1C2=O` gave MT1-MMP promoter inactive and Hsc70 ATP site -2.1%.
For Cn1nc(-c2ccccc2F)c2cc(C(=O)N3CCN(C(=O)c4ccco4)CC3)sc21 the results were MT1-MMP promoter inactive, WNV NS2B-NS3 inh -1.13 and Hsc70 ATP site 2.8%.
Screening COC(=O)c1ccc2c(=O)n3c(nc2c1)SCC(c1ccccc1)=N3 returned MT1-MMP promoter inactive, WNV NS2B-NS3 inh -0.29 and Hsc70 ATP site 5.4%.
`Cc1ccc(N(C(=O)c2ccc(S(=O)(=O)N3CCOCC3)cc2)C2C=CS(=O)(=O)C2)cc1` (stereo not given) gave MT1-MMP promoter inactive, WNV NS2B-NS3 inh -0.92 and Hsc70 ATP site -4.0%.
`C=CCn1c(SCn2nnc3ccccc3c2=O)nnc1C1CCCCC1` gave MT1-MMP promoter inactive, WNV NS2B-NS3 inh -0.18 and Hsc70 ATP site 3.4%.
`CCCc1nnc(SCC(=O)N2CCCCC2C)n1CC` (stereo not given) gave MT1-MMP promoter inactive and Hsc70 ATP site -2.2%.
For CCN1CCCC1CN(Cc1cc2cc(C)cc(C)c2[nH]c1=O)C(=O)Nc1ccccc1OC (stereo not given) the results were MT1-MMP promoter inactive, WNV NS2B-NS3 inh -0.68 and Hsc70 ATP site -4.1%.
Screening CCCN(CCC(=O)Nc1ccccc1F)CC1CC1 returned MT1-MMP promoter inactive, WNV NS2B-NS3 inh -1.17 and Hsc70 ATP site 1.9%.
`O=C1C2CC=CCC2C(=O)N1c1ncn[nH]1` (stereo not given) gave MT1-MMP promoter inactive and Hsc70 ATP site 3.1%.
Screening O=C(NCc1ccccc1)c1cc2nc(C3CC3)cc(C(F)(F)F)n2n1 returned MT1-MMP promoter inactive and Hsc70 ATP site 1.7%.
CCC1CC2(C)NC(=O)c3c(sc4c3CC(C)(C)OC4)N2C1=O (stereo not given) was read as MT1-MMP promoter inactive, WNV NS2B-NS3 inh -0.45 and Hsc70 ATP site -0.5%.
Screening COc1ccc(CN2C(=O)c3cccnc3C2Nc2cc(Cl)c(OC)cc2OC)cc1 (stereo not given) returned MT1-MMP promoter inactive, WNV NS2B-NS3 inh -1.11 and Hsc70 ATP site -1.7%.
`CC1(C)CC(=O)C2=C(C1)OC(N)=C(C#N)C2C1C=CCCC1` (stereo not given) gave MT1-MMP promoter inactive, WNV NS2B-NS3 inh 0.81 and Hsc70 ATP site 2.0%.
Screening O=C(NCc1ccco1)c1cccc2c1C(=O)N(C1CCCCC1)C2 returned MT1-MMP promoter inactive, WNV NS2B-NS3 inh -0.28 and Hsc70 ATP site -0.7%.
For CC1=C(C(=O)Nc2ccccn2)C(c2cccnc2)n2nnnc2N1 (stereo not given) the results were MT1-MMP promoter inactive, WNV NS2B-NS3 inh -1.11 and Hsc70 ATP site -0.5%.
O=c1cc(-c2ccc(Cl)c(Cl)c2)[nH][nH]1 was read as MT1-MMP promoter inactive, WNV NS2B-NS3 inh -0.07 and Hsc70 ATP site 2.7%.
For Cc1cc(C)c2c(n1)nn1c(N3CCN(c4cccc(Cl)c4)CC3)cc(C)nc21 the results were MT1-MMP promoter inactive, WNV NS2B-NS3 inh -0.48 and Hsc70 ATP site -8.0%.
Screening CCc1ccccc1N1CC(C(=O)O)CC1=O (stereo not given) returned MT1-MMP promoter inactive, WNV NS2B-NS3 inh -1.45 and Hsc70 ATP site 1.7%.
Screening O=C(NCCc1ccccc1)C1CCCN(S(=O)(=O)c2cccs2)C1 (stereo not given) returned MT1-MMP promoter inactive, WNV NS2B-NS3 inh -0.13 and Hsc70 ATP site -0.8%.
O=C(Nc1ccc(N2C(=O)C3C4C=CC(C4)C3C2=O)cc1)Nc1nncs1 (stereo not given) was read as MT1-MMP promoter inactive, WNV NS2B-NS3 inh -1 and Hsc70 ATP site 0.5%.
For CCCc1cc(C(=O)NCc2ccc(OC)cc2)no1 the results were MT1-MMP promoter inactive, WNV NS2B-NS3 inh 0.33 and Hsc70 ATP site 0.1%.
Cn1c(=O)c2c(-c3ccc(C(C)(C)C)cc3)n(N3CCOCC3)cc2n(C)c1=O was read as MT1-MMP promoter inactive, WNV NS2B-NS3 inh 0.2 and Hsc70 ATP site -5.3%.
Screening CCOc1ccc(-n2nc(C(=O)N3CCN(CC)CC3)c3ccccc3c2=O)cc1 returned MT1-MMP promoter inactive and Hsc70 ATP site 5.1%.
For Nc1ccc2oc(-c3cccc4ccccc34)nc2c1 the results were MT1-MMP promoter inactive, WNV NS2B-NS3 inh -0.58 and Hsc70 ATP site -2.6%.
For COc1cccc2[nH]c3c(N4CCN(Cc5ccc6c(c5)OCO6)CC4)ncnc3c12 the results were MT1-MMP promoter inactive, WNV NS2B-NS3 inh 1.03 and Hsc70 ATP site -2.5%.
`COC(=O)c1cccc(NC(=O)C2COc3ccccc3O2)c1C` (stereo not given) gave MT1-MMP promoter inactive, WNV NS2B-NS3 inh 0.41 and Hsc70 ATP site 2.9%.
`COc1ccc(C2/C(=C(/O)c3ccc(C)cc3)C(=O)C(=O)N2C)cc1` (stereo not given) gave MT1-MMP promoter inactive, WNV NS2B-NS3 inh -0.66 and Hsc70 ATP site 0.0%.
O=C(Nc1ccc(-c2nc3ccccc3o2)cc1)c1cc(-n2cnnc2)ccc1Cl was read as MT1-MMP promoter inactive and Hsc70 ATP site -1.8%.
Screening CN(C(=O)c1cccs1)c1ccccc1C(=O)O returned MT1-MMP promoter inactive, WNV NS2B-NS3 inh -0.18 and Hsc70 ATP site -1.4%.
CCCCNC(=O)CN(C1CCCCC1)S(C)(=O)=O was read as MT1-MMP promoter inactive, WNV NS2B-NS3 inh -0.82 and Hsc70 ATP site -1.4%.
O=C(COc1ccccc1Cl)Nn1cnnc1 was read as MT1-MMP promoter inactive, WNV NS2B-NS3 inh 0.54 and Hsc70 ATP site 3.0%.
Screening Cc1cc(NC(=O)c2cc(C3CC3)on2)n(-c2ccccc2)n1 returned MT1-MMP promoter inactive, WNV NS2B-NS3 inh -0.12 and Hsc70 ATP site -1.8%.
Cc1c(C2Nc3ccccc3C(=O)N2O)cnn1C (stereo not given) was read as MT1-MMP promoter inactive and Hsc70 ATP site 2.0%.
For N/C(=N\O)C1COc2ccccc2O1 (stereo not given) the results were MT1-MMP promoter inactive, WNV NS2B-NS3 inh -0.64 and Hsc70 ATP site 1.8%.
For Cc1nc2sc(C(c3cccs3)N3CCN(Cc4ccccc4)CC3)c(O)n2n1 (stereo not given) the results were MT1-MMP promoter inactive, WNV NS2B-NS3 inh -1.11 and Hsc70 ATP site -0.3%.
CC(=O)Oc1oc(-c2ccccc2)nc1/C=N/c1ccccn1 was read as MT1-MMP promoter inactive, WNV NS2B-NS3 inh -0.11 and Hsc70 ATP site 1.4%.
COCc1[nH][nH]c(=O)c1C=Nc1ccccc1 was read as MT1-MMP promoter inactive and Hsc70 ATP site 2.2%.
`O=C(NC1=NCCS1)c1csc2ccccc12` gave MT1-MMP promoter inactive, WNV NS2B-NS3 inh -0.13 and Hsc70 ATP site 5.7%.
COc1cc2c(cc1OC)CN(C(=O)COc1ccc(C)c(C)c1)CC2 was read as MT1-MMP promoter inactive, WNV NS2B-NS3 inh 0.46 and Hsc70 ATP site -3.1%.
`CCOC(=O)c1c(-c2ccccc2)nnn1-c1nc(OC)nc(N2CCOCC2)n1` gave MT1-MMP promoter inactive and Hsc70 ATP site -1.9%.
CCCCOC(=O)c1ccc(OC(=O)c2cccnc2)cc1 was read as MT1-MMP promoter inactive, WNV NS2B-NS3 inh -0.98 and Hsc70 ATP site -1.2%.
`Clc1cccc(NCc2nnc(SCc3ccccc3)o2)c1` gave MT1-MMP promoter inactive, WNV NS2B-NS3 inh -1 and Hsc70 ATP site -0.1%.
`CCCCCn1c(CNC(=O)CC)nc2ccccc21` gave MT1-MMP promoter inactive, WNV NS2B-NS3 inh -0.61 and Hsc70 ATP site -5.1%.
For CC(C)NC(=O)c1ccccc1NC(=O)CS(=O)(=O)Cc1ccccc1 the results were MT1-MMP promoter inactive and Hsc70 ATP site -1.2%.
Screening O=C(NCC(c1cccs1)N1CCOCC1)c1ccc(Br)o1 (stereo not given) returned MT1-MMP promoter inactive and Hsc70 ATP site -6.1%.
For COc1cc(S(=O)(=O)N2CCOCC2)ccc1NC(=O)COC(=O)C12CC3CC(CC(C3)C1)C2 the results were MT1-MMP promoter inactive, WNV NS2B-NS3 inh -0.16 and Hsc70 ATP site 6.2%.
`Cc1nc2sc(C(c3ccc(F)cc3)N3CCOCC3)c(O)n2n1` (stereo not given) gave MT1-MMP promoter inactive, WNV NS2B-NS3 inh -0.11 and Hsc70 ATP site -3.4%.
`COc1ccc(C(=O)OCc2cc3cccc(C)c3[nH]c2=O)cc1` gave MT1-MMP promoter inactive, WNV NS2B-NS3 inh -1.02 and Hsc70 ATP site -1.4%.
Screening CCOC(=O)c1ccc(N2C(=O)CC(N3CCC(Nc4ccc(F)cc4)CC3)C2=O)cc1 (stereo not given) returned MT1-MMP promoter inactive and Hsc70 ATP site -3.1%.
`Cc1nn2c(N3CCN(C(=O)c4ccco4)CC3)cc(C(C)(C)C)nc2c1-c1ccccc1` gave MT1-MMP promoter inactive, WNV NS2B-NS3 inh 0.65 and Hsc70 ATP site -0.9%.
`CCOc1ccccc1N(CC(=O)NC(C)(C)C)C(=O)c1ccc(CN2CCOCC2)o1` gave MT1-MMP promoter inactive, WNV NS2B-NS3 inh -0.5 and Hsc70 ATP site 4.1%.
S=C1NCCOCCOCCOCCOCCNC(=S)NCCOCCOCCOCCOCCN1 was read as MT1-MMP promoter inactive and Hsc70 ATP site -0.2%.
Screening C=CCNC(=O)Cn1nc(-c2ccccc2)ccc1=O returned MT1-MMP promoter inactive, WNV NS2B-NS3 inh -0.76 and Hsc70 ATP site 0.1%.
For CC(C)Cc1c(O)nc(SCCN2CCOCC2)[nH]c1=O the results were MT1-MMP promoter inactive, WNV NS2B-NS3 inh -1.03 and Hsc70 ATP site 2.9%.
`CCOc1ccc(-c2nnc3ccc(SCC(=O)N4CCN(c5ccccc5)CC4)nn23)cc1` gave MT1-MMP promoter inactive, WNV NS2B-NS3 inh 1.11 and Hsc70 ATP site -2.9%.
Screening COC(=O)c1ccc(NC(=O)CC2C(=O)N(c3ccc(C)cc3)C(=O)N2CC(C)C)cc1 (stereo not given) returned MT1-MMP promoter inactive and Hsc70 ATP site 0.4%.
CCC(C(=O)c1ccc(O)cc1)c1ccccc1 (stereo not given) was read as MT1-MMP promoter inactive, WNV NS2B-NS3 inh 0.3 and Hsc70 ATP site -2.9%.
For O=C(CCN1CCCCCC1)Nc1ccc(F)cc1 the results were MT1-MMP promoter inactive, WNV NS2B-NS3 inh 0.05 and Hsc70 ATP site 0.4%.
For O=C(c1nc(-c2ccccc2)n(-c2ccccc2)n1)N1CCCCCC1 the results were MT1-MMP promoter inactive, WNV NS2B-NS3 inh -0.3 and Hsc70 ATP site 3.0%.
Screening COc1ccc(N2CCN(C(c3cccs3)c3nnnn3C3CCCC3)CC2)cc1 (stereo not given) returned MT1-MMP promoter inactive, WNV NS2B-NS3 inh 0.28 and Hsc70 ATP site 7.9%.
Screening CCc1nc(OCCN(C)C)c2oc3ccccc3c2n1 returned MT1-MMP promoter inactive, WNV NS2B-NS3 inh -1.33 and Hsc70 ATP site -0.7%.
For Cc1ccc2c(CN3CCC(C)CC3)cc(=O)oc2c1 the results were MT1-MMP promoter inactive and Hsc70 ATP site 2.6%.
`O=C(CSc1nnc(C2CC2)n1Cc1ccccc1)NCc1ccccc1` gave MT1-MMP promoter inactive and Hsc70 ATP site -3.3%.
Cc1ccc(NC(=O)CN2C(=O)S/C(=C/c3ccc(-c4cc(C(=O)O)ccc4C)o3)C2=O)cc1C was read as MT1-MMP promoter inactive and Hsc70 ATP site -79.3%.
CCOC(=O)c1cc2sccc2n1CC(=O)N1CCN(C(=O)c2ccco2)CC1 was read as MT1-MMP promoter inactive, WNV NS2B-NS3 inh -1.44 and Hsc70 ATP site 1.0%.
`CSc1sc(C(=O)O)c2c1C(=O)CCC2` gave MT1-MMP promoter inactive, WNV NS2B-NS3 inh 0.14 and Hsc70 ATP site -0.3%.

In the list so far, 7 contain an NH in an aromatic ring.
For CCN1CCCC1CN(Cc1cc2cc(C)cc(C)c2[nH]c1=O)C(=O)Nc1ccccc1OC (stereo not given) the results were MT1-MMP promoter inactive, WNV NS2B-NS3 inh -0.68 and Hsc70 ATP site -4.1%.
`O=C1C2CC=CCC2C(=O)N1c1ncn[nH]1` (stereo not given) gave MT1-MMP promoter inactive and Hsc70 ATP site 3.1%.
O=c1cc(-c2ccc(Cl)c(Cl)c2)[nH][nH]1 was read as MT1-MMP promoter inactive, WNV NS2B-NS3 inh -0.07 and Hsc70 ATP site 2.7%.
For COc1cccc2[nH]c3c(N4CCN(Cc5ccc6c(c5)OCO6)CC4)ncnc3c12 the results were MT1-MMP promoter inactive, WNV NS2B-NS3 inh 1.03 and Hsc70 ATP site -2.5%.
COCc1[nH][nH]c(=O)c1C=Nc1ccccc1 was read as MT1-MMP promoter inactive and Hsc70 ATP site 2.2%.
`COc1ccc(C(=O)OCc2cc3cccc(C)c3[nH]c2=O)cc1` gave MT1-MMP promoter inactive, WNV NS2B-NS3 inh -1.02 and Hsc70 ATP site -1.4%.
For CC(C)Cc1c(O)nc(SCCN2CCOCC2)[nH]c1=O the results were MT1-MMP promoter inactive, WNV NS2B-NS3 inh -1.03 and Hsc70 ATP site 2.9%.
